Rango dissoc inh = qHTS Assay for Inhibitors of RanGTP induced Rango (Ran-regulated importin-beta cargo) - Importin beta complex dissociation. 340,000 compounds, 0.071% hits. Potency, µM (doses to about 46.1 µM), for inactives: top-dose activity change, negative = inhibition. Biochemical FRET Rango-importin beta, RanGTP-induced dissociation. AID 540253, 2011; active means falling FRET ratio curve, often poorly fitted, with flat reads before Ran was added; inconclusive means other falling curves, or compound fluorescence or quenching; inactive means flat or rising ratio curve;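 further: potency means the concentration at half of the fitted maximal effect; % of control where 0% means no effect; nearly all actives have a fitted effect of over 45% in size; -100% = wells without RanGTP and RCC1; the record marks most hits as doubtful in a second field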
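Rango (0.1 uM)–importin beta (0.25 uM) complex; RanGTP-RCC1 trigger; 45 min RT; CFP/YFP FRET read.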
miR-21 reporter = qHTS Assay for Modulators of miRNAs and/orActivators of miR-21. AID 2288, 2010. HeLa miR-21 FLuc reporter, luciferase, 48 h. Potency, µM (titrated, usually from 38.3 µM), inactives show at the top dose reporter change, positive = more light. 340,000 tested, under 10 active; active = well fitted rising curve with a large enough effect; inconclusive = small, poorly fitted or top-dose-only effect; inactive = no such curve, though single readings can be large or run the other way;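 further: % of control where 0% means no effect; miR-21 action dims this reporter so a rising signal means less miR-21 action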
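Compounds were titrated across several concentrations (up to approximately 40 uM) and incubated 48 hours with HeLa miR-21-FLuc reporter cells (miR-21 target sequence downstream of FLuc, endogenous miR-21). Readout was firefly luciferase luminescence after lytic detection reagent.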
GLA inh pH 4.5 = qHTS Assay for Inhibitors of Human alpha-Galactosidase at pH 4.5; activity change, negative = inhibition, % at 105 µM; AID 1467, 2008; 230,000 tested, under 10 active; purified enzyme, 4-MU-alpha-Gal fluorescence, pH 4.5; Alpha-galactosidase A (Homo sapiens), P06280; inconclusive = small, poorly fitted or top-dose-only inhibition, or a rising curve; inactive = flat fitted curve, though single readings scatter; no compound was filed as active;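 further: 0% = full activity with enzyme and -100% = basal without enzyme; dose as in the result columns while the protocol names 77 µM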
Rango complex inh = qHTS Assay for Inhibitors of Rango (Ran-regulated importin-beta cargo) - Importin beta complex formation; 340,000 compounds, 0.031% hits; Importin subunit beta-1 (Homo sapiens), Q14974; Rango CFP/YFP FRET sensor + importin beta, 45 min; Potency, µM (doses to about 92.2 µM), without a hit: top-dose inhibition of complex formation; AID 540263, 2011; active = rising FRET ratio curve, often small or poorly fitted; inconclusive = mostly compound fluorescence or quenching in the first reads; inactive = flat curves in all reads;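 further: potency means the concentration at half of the fitted maximal effect; 0% = DMSO wells and 100% = buffer wells lacking importin beta; nearly all actives have a fitted effect of over 15% in size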
Target sequence (Q14974 whole entry, looked up): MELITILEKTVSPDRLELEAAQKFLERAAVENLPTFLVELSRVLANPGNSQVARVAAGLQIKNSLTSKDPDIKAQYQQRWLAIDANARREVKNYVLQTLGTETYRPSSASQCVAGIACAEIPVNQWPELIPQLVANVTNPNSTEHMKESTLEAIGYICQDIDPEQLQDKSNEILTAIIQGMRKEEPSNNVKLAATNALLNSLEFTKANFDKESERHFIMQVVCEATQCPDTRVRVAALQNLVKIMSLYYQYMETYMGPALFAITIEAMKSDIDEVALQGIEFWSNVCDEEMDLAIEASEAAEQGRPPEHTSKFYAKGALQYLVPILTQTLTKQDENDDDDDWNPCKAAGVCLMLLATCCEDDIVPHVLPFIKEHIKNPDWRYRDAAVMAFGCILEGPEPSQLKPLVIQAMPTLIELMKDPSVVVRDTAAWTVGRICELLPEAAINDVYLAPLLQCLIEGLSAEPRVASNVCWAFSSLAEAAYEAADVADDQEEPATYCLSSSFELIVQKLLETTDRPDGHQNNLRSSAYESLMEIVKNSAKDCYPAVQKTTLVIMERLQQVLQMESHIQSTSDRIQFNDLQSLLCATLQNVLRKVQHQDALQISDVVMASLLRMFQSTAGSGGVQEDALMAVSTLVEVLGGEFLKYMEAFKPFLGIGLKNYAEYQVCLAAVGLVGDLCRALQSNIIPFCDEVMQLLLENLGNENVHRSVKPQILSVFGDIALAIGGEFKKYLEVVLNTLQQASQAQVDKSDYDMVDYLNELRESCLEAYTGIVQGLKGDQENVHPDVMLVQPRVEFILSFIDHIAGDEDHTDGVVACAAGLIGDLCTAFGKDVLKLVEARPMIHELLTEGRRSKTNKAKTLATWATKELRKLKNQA
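FRET biosensor Rango (snurportin 1 IBB between N-terminal EYFP and C-terminal Cerulean), 50 nM in PBS/1 mM DTT/0.02% Tween-20/0.1% BSA, preincubated 5 min RT with compound; 0.125 microM importin beta added, 45 min RT, CFP/YFP FRET ratio read.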
* = called active by the depositor; & = joins results of further samples.

Screening COc1ccc(-c2cc(C)no2)cc1S(=O)(=O)NCCc1ccco1 returned Rango dissoc inh -3%, miR-21 reporter -5% and Rango complex inh 0.3%.
Screening CCc1ccccc1NC(=O)NC1CCCCCCC1 returned Rango dissoc inh 9%, miR-21 reporter -11% and Rango complex inh -1.3%.
Screening Cc1ccc(-c2cnco2)cc1 returned Rango dissoc inh 1%, miR-21 reporter -1%, GLA inh pH 4.5 0 and Rango complex inh -2.0%.
Screening Cc1ccc(CNC(=O)C2CCCN2C(=O)Nc2ccc(F)cc2)cc1 (centres undefined) returned Rango dissoc inh -15%, miR-21 reporter 0% and Rango complex inh 0.2%.
For CCOC(=O)c1c(NC(=O)CCS(=O)(=O)c2ccccc2)sc2c1CCN(C(C)C)C2 the results were Rango dissoc inh inconclusive, miR-21 reporter 10% and Rango complex inh inconclusive.
For COc1cccc(CNc2nc(SC)ncc2CO)c1 the results were Rango dissoc inh 9%, miR-21 reporter -1%, GLA inh pH 4.5 -6 and Rango complex inh -4.6%.
Screening COc1cccc(-n2c(SCc3c(C)noc3C)nnc2-c2cccc(S(=O)(=O)N(C)C)c2)c1 returned Rango dissoc inh 9%, miR-21 reporter -10%, GLA inh pH 4.5 4 and Rango complex inh -5.1%.
For CC(=O)Nc1cc2cc(NS(=O)(=O)c3ccc(C)cc3)ccc2oc1=O the results were Rango dissoc inh 30%, miR-21 reporter -1%, GLA inh pH 4.5 3 and Rango complex inh -0.2%.
Screening CCn1c(=O)c(=O)[nH]c2cc(C(=O)N3CCN(Cc4ccc5c(c4)OCO5)CC3)ccc21 returned Rango dissoc inh 3%, miR-21 reporter 10%, GLA inh pH 4.5 8 and Rango complex inh -0.9%.
CC1CCN(C(=O)COC(=O)/C=C/c2ccc([N+](=O)[O-])cc2)CC1 was read as Rango dissoc inh 6% and Rango complex inh -0.1%.
C/C(N)=C(/C#N)C(=O)CSc1nnc(Nc2cccc(C)c2)s1 was read as Rango dissoc inh -9%&-10%, miR-21 reporter -60%, GLA inh pH 4.5 -9 and Rango complex inh 6.5%&-4.2%.
For O=C(NCC1CCCCC1)C12CN(Cc3ccccc3)CC1C(c1cccc([N+](=O)[O-])c1)=NO2 (centres undefined) the results were Rango dissoc inh -7%, miR-21 reporter 0%, GLA inh pH 4.5 -5 and Rango complex inh -1.7%.
COc1ccc(C(C)=O)cc1COC(=O)c1c(C)noc1C was read as Rango dissoc inh 7%, miR-21 reporter 13%, GLA inh pH 4.5 2 and Rango complex inh -0.2%.
Cc1cc(C)cc(CC2CC(=O)N(c3ccc([N+](=O)[O-])cc3)C2=O)c1 (centres undefined) was read as Rango dissoc inh 6%, miR-21 reporter -1% and Rango complex inh 2.1%.
Screening Oc1cccc(C(O)CNCc2ccc(-c3ccccc3)cc2)c1 (centres undefined) returned Rango dissoc inh 1%, miR-21 reporter 14%, GLA inh pH 4.5 5 and Rango complex inh 0.5%.
Screening Cc1cc(C)n2nc(C(=O)N3CCN(Cc4ccc5c(c4)OCO5)CC3)nc2n1 returned Rango dissoc inh 3%, miR-21 reporter -2%, GLA inh pH 4.5 5 and Rango complex inh -3.5%.
CC1(C)CC(=O)c2cc(OCC(=O)N3CCCCCC3)ccc2O1 was read as Rango dissoc inh -13%, miR-21 reporter -36%, GLA inh pH 4.5 5 and Rango complex inh 0.3%.
COc1cccc(NC(=S)N(Cc2ccc(C)cc2)Cc2ccccn2)c1 was read as Rango dissoc inh 1%, miR-21 reporter 3%, GLA inh pH 4.5 0 and Rango complex inh 7.9%.
Screening CC(=N\Nc1ccccc1)/C(=N/O)C(=O)Nc1ccccc1 returned Rango dissoc inh 3%, miR-21 reporter -2%, GLA inh pH 4.5 -2 and Rango complex inh 0.1%.
Cc1ccc2oc(C(=O)N3CCC(O)(c4cccc(C(F)(F)F)c4)CC3)c(C)c2c1 was read as Rango dissoc inh -9%, miR-21 reporter -25% and Rango complex inh 0.6%.
For O=C(N/C(=C/c1cccnc1)C(=O)N1CCOCC1)c1ccco1 the results were Rango dissoc inh 0%, miR-21 reporter -14%, GLA inh pH 4.5 -10 and Rango complex inh 2.8%.
CCC(OC(=O)C(C)N1C(=O)C(=O)c2ccccc21)C(=O)Nc1ccccc1OC (centres undefined) was read as Rango dissoc inh 4%, miR-21 reporter -1% and Rango complex inh 0.6%.
For Cc1c(-n2c(-c3ccccc3)nc3ccccc3c2=O)c(=O)n(-c2ccccc2)n1C the results were Rango dissoc inh 0%, miR-21 reporter 0%, GLA inh pH 4.5 -7 and Rango complex inh -1.1%.
CC(=O)C(C(C)=O)c1cc(NS(=O)(=O)c2ccccc2)ccc1NS(=O)(=O)c1ccccc1 was read as Rango dissoc inh -3%, miR-21 reporter 13% and Rango complex inh inconclusive.
Screening COc1ccc(OC)c(NC(=S)NCCCN2CCOCC2)c1 returned Rango dissoc inh 2%, miR-21 reporter -6%, GLA inh pH 4.5 9 and Rango complex inh 4.1%.
`O=C(OCC(=O)N1CCOCC1)c1ccccc1Br` gave Rango dissoc inh -10%, miR-21 reporter -35% and Rango complex inh -4.6%.
O=C(COc1cccc2cccnc12)N/N=C1\SCC(=O)N1Cc1ccccc1 was read as Rango dissoc inh -16%, miR-21 reporter -7%, GLA inh pH 4.5 8 and Rango complex inh 1.1%.
For CN(C)c1cc[n+](CC(=O)Nc2ccc(OC(F)F)cc2)cc1 the results were Rango dissoc inh 11%, miR-21 reporter 16%, GLA inh pH 4.5 0 and Rango complex inh 4.3%.
O=S(=O)(c1ccccc1)c1nc(NCc2cccnc2)sc1Cl was read as Rango dissoc inh 4%, miR-21 reporter 5%, GLA inh pH 4.5 0 and Rango complex inh -1.2%.
`Cc1ccc(-n2c(Cc3cccn3C)nnc2SCC(=O)Nc2cc(C)on2)cc1` gave Rango dissoc inh -7%, miR-21 reporter -2%, GLA inh pH 4.5 8 and Rango complex inh 0.3%.

Some of these compounds in order of SMILES length, ascending:
O=S(=O)(c1ccccc1)c1nc(NCc2cccnc2)sc1Cl was read as Rango dissoc inh 4%, miR-21 reporter 5%, GLA inh pH 4.5 0 and Rango complex inh -1.2%.
For Cc1c(-n2c(-c3ccccc3)nc3ccccc3c2=O)c(=O)n(-c2ccccc2)n1C the results were Rango dissoc inh 0%, miR-21 reporter 0%, GLA inh pH 4.5 -7 and Rango complex inh -1.1%.
Cc1ccc2oc(C(=O)N3CCC(O)(c4cccc(C(F)(F)F)c4)CC3)c(C)c2c1 was read as Rango dissoc inh -9%, miR-21 reporter -25% and Rango complex inh 0.6%.
For O=C(NCC1CCCCC1)C12CN(Cc3ccccc3)CC1C(c1cccc([N+](=O)[O-])c1)=NO2 (centres undefined) the results were Rango dissoc inh -7%, miR-21 reporter 0%, GLA inh pH 4.5 -5 and Rango complex inh -1.7%.

The listing picks up; the 2 compounds before the break are reprinted first.
O=S(=O)(c1ccccc1)c1nc(NCc2cccnc2)sc1Cl was read as Rango dissoc inh 4%, miR-21 reporter 5%, GLA inh pH 4.5 0 and Rango complex inh -1.2%.
`Cc1ccc(-n2c(Cc3cccn3C)nnc2SCC(=O)Nc2cc(C)on2)cc1` gave Rango dissoc inh -7%, miR-21 reporter -2%, GLA inh pH 4.5 8 and Rango complex inh 0.3%.
For Cc1ccc(-n2ncc3c(SCc4cccc(C)c4)ncnc32)cc1 the results were Rango dissoc inh 24%, miR-21 reporter -46%, GLA inh pH 4.5 0 and Rango complex inh -5.8%.
`CC(C)N(Cc1ccccc1)C(=S)Nc1ccccc1F` gave Rango dissoc inh -7%, miR-21 reporter -2%, GLA inh pH 4.5 -9 and Rango complex inh 6.5%.
Screening CS(=O)(=O)c1ccc(C(=O)NC2CCOC2=O)cc1 (centres undefined) returned Rango dissoc inh 1%, miR-21 reporter -2%, GLA inh pH 4.5 8 and Rango complex inh -2.7%.
For O=C(CCN1C(=O)[C@@H]2Cc3ccccc3CN2C1=O)Nc1cccc(F)c1 the results were Rango dissoc inh -11%, miR-21 reporter 0% and Rango complex inh 3.3%.
Screening CNC[C@@H]1Oc2c(NC(=O)Nc3ccccc3)cccc2C(=O)N([C@@H](C)CO)C[C@H]1C returned Rango dissoc inh -1% and Rango complex inh -3.6%.
For O=C(CSc1ccc([N+](=O)[O-])cn1)Nc1nccs1 the results were Rango dissoc inh -5%, miR-21 reporter 1% and Rango complex inh -3.0%.
For CCN(CC)C(=O)c1ccc(-c2ccccc2)cc1 the results were Rango dissoc inh 10%, miR-21 reporter -43%, GLA inh pH 4.5 -7 and Rango complex inh 1.8%.
For Cc1cccn2c(=O)c3cc(C(=O)N4COCC4(C)C)sc3nc12 the results were Rango dissoc inh inconclusive, miR-21 reporter -7%, GLA inh pH 4.5 20 and Rango complex inh inconclusive.
For Cc1ccnc2nc(C(=O)OCC(=O)N3CCc4ccccc43)nn12 the results were Rango dissoc inh -1%, miR-21 reporter 1%, GLA inh pH 4.5 2 and Rango complex inh -2.5%.
Screening CCCCn1c(SCC(=O)NCc2ccco2)nc2c1c(=O)n(C)c(=O)n2C returned Rango dissoc inh -12%, miR-21 reporter -2%, GLA inh pH 4.5 -10 and Rango complex inh 3.3%.
Screening Cc1ccc(NC(=O)N2CCCC2C(=O)NCC2CCCO2)cc1 (centres undefined) returned Rango dissoc inh -9%, miR-21 reporter -1%, GLA inh pH 4.5 -6 and Rango complex inh 1.2%.
`Cc1ccc(C(=O)NN2C(=O)C3C4c5ccccc5C(c5ccccc54)C3C2=O)cc1` (centres undefined) gave Rango dissoc inh 7%, miR-21 reporter -8%, GLA inh pH 4.5 3 and Rango complex inh -0.8%.
`COc1ccc(CC(C)CC(=O)NCCc2ccc(OC)c(OC)c2)cc1` (centres undefined) gave Rango dissoc inh 4%, miR-21 reporter 0% and Rango complex inh -1.4%.
CON(C)c1nc(OCC#N)nc(N(C)C)n1 was read as Rango dissoc inh 0%, miR-21 reporter -6%, GLA inh pH 4.5 -6 and Rango complex inh -0.3%.
COc1ccc(C)cc1N(C(=O)c1ccco1)C(C(=O)NC1CCCC1)c1cc(OC)c(OC)c(OC)c1 (centres undefined) was read as Rango dissoc inh inconclusive, miR-21 reporter 4% and Rango complex inh -6.2%.
For CC(C)N1C(=O)CN(C2CCCCCC2)C(=O)C1c1ccccc1F (centres undefined) the results were Rango dissoc inh -9%, miR-21 reporter -56%, GLA inh pH 4.5 -6 and Rango complex inh -3.7%.
CN1C(=O)/C(=C/c2ccccc2OCc2ccccc2F)NC1=S was read as Rango dissoc inh inconclusive, miR-21 reporter -6%, GLA inh pH 4.5 -14 and Rango complex inh inconclusive.
For O=c1c2ccccc2ncn1C1CCCCC1 the results were Rango dissoc inh -4%, miR-21 reporter -15%, GLA inh pH 4.5 9 and Rango complex inh 1.7%.
`COc1cc(NC(=O)C2CCCN2S(=O)(=O)c2ccc3c(c2)CC(C)N3C(C)=O)cc(OC)c1` (centres undefined) gave Rango dissoc inh 17%, miR-21 reporter -9% and Rango complex inh -0.3%.
CC(C)(C)CC(C)(C)n1nnnc1N was read as Rango dissoc inh -15% and Rango complex inh inconclusive.
O=C(O)C1=C[C@H](C2CC2)C[C@H](OCc2ccc(CO)cc2)O1 was read as Rango dissoc inh 4% and Rango complex inh -3.4%.
Screening CCN1CCN(C(=O)CCN2C(=O)c3ccccc3S2(=O)=O)CC1 returned Rango dissoc inh -1% and Rango complex inh 2.2%.
`O=C(C=Cc1cccs1)c1ccc(Cl)s1` gave Rango dissoc inh -13% and Rango complex inh 2.2%.
`CC(NC(=O)Nc1ccccc1C(F)(F)F)C1CCCO1` (centres undefined) gave Rango dissoc inh -5%, miR-21 reporter -9%, GLA inh pH 4.5 3 and Rango complex inh 0.6%.
`COC(=O)c1ccccc1OCC(=O)N1CCN(c2ccc(OC)cc2)CC1` gave Rango dissoc inh -5%, miR-21 reporter -6%, GLA inh pH 4.5 -1 and Rango complex inh -1.3%.
CN1CCN(NC(=O)c2cn(-c3ccccc3)nc2-c2cccs2)CC1 was read as Rango dissoc inh 13%, miR-21 reporter -6%, GLA inh pH 4.5 3 and Rango complex inh -1.0%.

A portion of the library; rates above refer to the full screens.
